Rce1 inh – inhibitors of yeast Ras-converting enzyme; actives 0.27% (n = 290,000); AID 2563; calls only; yeast membranes, quenched prenylated peptide cleavage fluorescence;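 active = fall in fluorescence gain of 50% or more versus controls, with final raw signal at or below 3038400; inconclusive = same 50% fall but final raw signal above 3038400; inactive = fall in fluorescence gain under 50%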;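 also: plate controls were neutral control wells for no effect and wells lacking membranes for full effect; tested at 10 µM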
UUG fidelity – modulators of start codon recognition fidelity in yeast; AID 602363; activity score, % at 18.7 µM; actives 0.13% (n = 350,000); S. cerevisiae UUG-firefly luciferase reporter, luminescence/redox ratio;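 active = replicate mean at a twofold rise or more, about +100% in these data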;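 also: firefly luciferase made from a UUG start codon reports start codon fidelity; reporter light over untreated wells divided by growth signal over untreated wells; some hits fall short of that in this replicate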
PABP FP inh – blocks human PABP binding to poly(A) RNA. fluorescence polarization. P11940. inhibition, % at 35 µM. AID 2014. actives 1% (n = 290,000);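 active = 50% or more with normal probe brightness, or confirmed in later tests; inconclusive = above 50% with abnormal brightness, or retests that disagree; inactive = below 50% or failed in later tests; about a fifth of its hits are not listed in these tables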;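 also: calls also rest on retests at 20 µM and on dose response follow-up; controls were probe without protein and protein plus probe with vehicle; some compounds called inactive have numbers as strong as hits; many hits fall short of the cut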
Target sequence (P11940 whole entry, looked up): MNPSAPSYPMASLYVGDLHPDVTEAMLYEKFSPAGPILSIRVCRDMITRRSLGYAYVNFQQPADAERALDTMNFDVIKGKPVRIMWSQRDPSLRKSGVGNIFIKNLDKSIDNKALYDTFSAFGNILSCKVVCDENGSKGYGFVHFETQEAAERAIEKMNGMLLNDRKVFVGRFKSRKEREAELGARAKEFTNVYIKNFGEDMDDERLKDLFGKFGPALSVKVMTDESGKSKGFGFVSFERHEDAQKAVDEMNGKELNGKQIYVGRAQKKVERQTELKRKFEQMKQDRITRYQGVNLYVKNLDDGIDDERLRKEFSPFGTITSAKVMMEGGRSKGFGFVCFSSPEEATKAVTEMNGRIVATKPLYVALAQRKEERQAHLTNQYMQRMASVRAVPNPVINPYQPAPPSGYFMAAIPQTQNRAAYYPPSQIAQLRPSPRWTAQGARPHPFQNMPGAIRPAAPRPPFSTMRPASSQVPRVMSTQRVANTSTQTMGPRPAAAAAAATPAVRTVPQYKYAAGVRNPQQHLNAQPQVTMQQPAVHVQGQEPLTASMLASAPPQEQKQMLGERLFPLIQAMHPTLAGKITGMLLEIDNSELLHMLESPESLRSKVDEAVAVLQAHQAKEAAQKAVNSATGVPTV
MT1-MMP act inh – blocks activation of human MT1-MMP; P50281; HT1080 RFP-PRO-GFP cells, GFP/RFP ratio fluorescence, overnight; percent of plate control window, DMSO zero; GFP/RFP ratio change, % at 20 µM; actives 0.061% (n = 360,000);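 active = GFP/RFP ratio change of at least 30% with cell ATP level not reduced by more than half and red fluorescence within 50% of control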; also: strong numbers were not always called active
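Test system: HT1080 cells expressing an RFP-PRO-GFP fluorescent reporter construct / Compound dosing: single-point 20 µM compound, 1% DMSO / Schedule: cells overnight before dosing, compound overnight, 37 °C, 5% CO2 / Evaluation: GFP/RFP fluorescence ratio / Control set: DMSO and RFP-L50D-GFP cell wells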
eIF4H inh – inhibitors of RNA binding by human eIF4H | actives 0.94% (n = 290,000) | inhibition, % at 35 µM | eIF4H fluorescence polarization binding assay;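 active = 50% or more with normal probe brightness, or confirmed in later tests; inconclusive = above 50% with abnormal brightness, or retests that disagree; inactive = below 50% or failed in later tests; about a fifth of its hits are not listed in these tables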;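 also: calls also rest on retests at 20 µM and on dose response follow-up; 0% = protein and probe with vehicle and 100% = probe without protein; strong numbers were not always called active; many hits fall short of the cut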
CSC inhib – blocks cancer stem cells. cancer stem cell-like cells viability, luminescence. inhibition, % at 7.5 µM. actives 1.1% (n = 300,000). AID 2717;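 active = mean at 75% or more and at least half the replicates too; inconclusive = mean and replicates disagree; tested in HMLE shEcad cells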;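 also: 0% = median of negative and 100% = median of positive control wells; the first replicate is given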
HIV Env fusion – inhibitors of HIV Env-mediated cell fusion; inhibition, % at 12.3 µM; actives 1.1% (n = 360,000); HeLa-JRFL Env/CEM21 cell fusion, luciferase; AID 651610;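 active = mean replicate inhibition score of at least 50 and every replicate individually at or above 50; inconclusive = only one of the two criteria met; inactive = mean below 50 and not all replicates reaching 50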;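 also: 0% = plate neutral controls and 100% = maraviroc near 300 nM; one replicate is shown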
eIF4H inh retest – second read-out of eIF4H inh, no call of its own (marks repeat the call); inhibition, %; compound at 20 µM; confirmation average;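 mean of two retest wells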
PABP FP inh retest – also measured in PABP FP inh; calls as there; inhibition, %; compound at 20 µM; confirmation repeats;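 mean of two retest wells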
MT1-MMP act inh RFP – second read-out of MT1-MMP act inh, no call of its own (marks repeat the call); RFP signal change, %; measured here: RFP expression control read;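 0 = vehicle wells; hits needed this value within 50% of zero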
* marks the source's active call; other numbers are inactive results; i = inactive; ? = inconclusive; . = not tested or not shown; & = joins results of further samples.

Preview:
SMILES	Rce1 inh	UUG fidelity	PABP FP inh	MT1-MMP act inh	MT1-MMP act inh RFP	eIF4H inh	CSC inhib	HIV Env fusion	others
O=C(NC(=S)N1CCOCC1)C12CCC3CC(CC(C3)C1)C2	.	-16	2	5	-1	1	-6	16
O=C(c1ccc2nc[nH]c2c1)N1CCN(c2cccc(C(F)(F)F)c2)CC1	i	-28	5	1	-1	0	8	19
COc1ccc(Cl)cc1NC(=O)CN(C)C(=O)Cn1cnnn1	.	.	.	2	2	.	2	-5
C[C@@H](C(=O)O)[C@H]1C[C@]1(C)[C@H](NC(=O)OCc1ccccc1)c1ccccc1	i	-7	-2	1	5	-4	-10	0

Results, from the first entry:
SMILES	Rce1 inh	UUG fidelity	PABP FP inh	MT1-MMP act inh	MT1-MMP act inh RFP	eIF4H inh	CSC inhib	HIV Env fusion	others
O=C(NC(=S)N1CCOCC1)C12CCC3CC(CC(C3)C1)C2	.	-16	2	5	-1	1	-6	16
O=C(c1ccc2nc[nH]c2c1)N1CCN(c2cccc(C(F)(F)F)c2)CC1	i	-28	5	1	-1	0	8	19
COc1ccc(Cl)cc1NC(=O)CN(C)C(=O)Cn1cnnn1	.	.	.	2	2	.	2	-5
C[C@@H](C(=O)O)[C@H]1C[C@]1(C)[C@H](NC(=O)OCc1ccccc1)c1ccccc1	i	-7	-2	1	5	-4	-10	0
CCCC(=O)Nc1c(-c2ccccc2OC)c(=O)c2ccccc2n1C	i	-6	-10	0	-2	0	-5	2
CCN1CCC(=NNC(=O)c2ccc(C)c([N+](=O)[O-])c2)CC1	.	-23	-2	-3	2	4	-14	.
C[C@H](NC(=O)c1ccccc1)C(=O)Nc1nc(-c2ccccn2)cs1	i	.	4	1	-2	8	13	20
Cc1cc(-c2ccccc2)nc2cc(C(=O)NCCCn3ccnc3)nn12	.	9	6	0	3	-1	-6	.
CC1(C)CC2CC(C)(CN2Cc2c(O)ccc3ccccc23)C1 (stereo unspecified)	i	.	7	2	4	8	23	-10
CCCCCC1(C)NC(=S)N(c2ccccc2)N1 (stereo unspecified)	i	.	5	1	4	3	-2	13
COc1ccc(CN(C)C(=O)COC(=O)c2ccc3c(c2)OCO3)cc1OC	i	.	52	1	-6	130	-9	.	eIF4H inh retest=-4;PABP FP inh retest=4
CCOC(=O)C1=C(C)N=c2s/c(=C/c3cccc([N+](=O)[O-])c3O)c(=O)n2C1c1ccc(OC)cc1OC (stereo unspecified)	i	-1	39	26	20	2	.	9
Cc1ccc(S(=O)(=O)N2CCCCC2CCNC(=O)C(=O)NCc2cccnc2)cc1 (stereo unspecified)	i	.	.	-3	-2	.	23	-18
O=C(CSc1nc(-c2ccccc2)cc(C(F)(F)F)n1)c1cccc([N+](=O)[O-])c1	i	.	-2	-3	-2	4	?	-15
COc1cc(/C=N\Nc2nc3ccccc3[nH]2)cc(OC)c1OC	i	-17	-6	10	-2	-1	6	50
CCOC(=O)C1C2C=CC(CC2)N1c1ccccc1 (stereo unspecified)	i	-18	.	2	1	.	-8	-2
Cn1cnc([N+](=O)[O-])c1S(=O)(=O)Oc1ccccc1	.	-30	.	0	4	.	.	-25
N#CCc1nc2c3c4c(sc3ncn2n1)CCCC4	i	-10	-6	-11	0	-4	.	-92
COc1ccc(C(C[N+](=O)[O-])c2c(-c3ccccc3)cc3ccccn23)cc1OC (stereo unspecified)	i	-28	1	-5	6	9	10	-29
CCOC(=O)C1CCN(c2cc(C)nc3cc(-c4cccc(F)c4)nn23)CC1	.	-29	-5	2	-6	-6	.	-34
O=C(CNC(=O)c1cccs1)OCC(=O)c1ccc([N+](=O)[O-])cc1	i	.	5	-4	0	-6	.	5
Cc1nnn(-c2nonc2N)c1C(=O)NNC(=O)c1ccc(Cl)c(Cl)c1	i	.	0	3	4	-6	-4	1
CCN1CCN(CCCNC(=O)C2CCN(c3nnc(-n4c(C)ccc4C)s3)CC2)CC1	i	-24	8	0	3	-3	.	-39
CC(C)(C)c1csc(NC2=NS(=O)(=O)c3ccccc32)n1	i	.	14	-24	-12	1	-2	.
CC1CCC(NC(=O)CCn2ccc3cc(S(=O)(=O)N4CCCC4)ccc32)CC1 (stereo unspecified)	i	7	-5	-1	-2	-6	-4	73*
Fc1cccc(CNc2ncnc3cc(Cl)ccc23)c1F	i	-7	12	-7	-19	1	-1	14
CNC(=O)NC(=S)NC(=O)c1ccc(OC)cc1	i	-11	7	2	2	-7	-6	-3
COc1cc(C(=O)NCCC(C)C)c([N+](=O)[O-])cc1OC	i	.	4	2	3	8	1	.
Cc1ccc(S(=O)(=O)Cc2ccc(C(=O)N3CCN(c4cc(C)ccc4C)CC3)o2)cc1	i	-24	-2	-3	-3	33	51	-16
O=C(CN1C(=O)NC(Cc2ccccc2)C1=O)Nc1ccccc1OC(F)F (stereo unspecified)	i	-3	.	-1	4	.	0	-15
Cc1cccc(N2CCN(C(=O)C3CCN(c4ncnc5c4nc4n5CCCCC4)CC3)CC2C)c1 (stereo unspecified)	i	1	5	-5	-20	-16	24	7
Cc1cccc(S(=O)(=O)N(C)C[C@@H]2OCc3cnnn3CCCC(=O)N([C@H](C)CO)C[C@@H]2C)c1	.	-11&-16&2	.	-1	3	.	.	-14
COc1ccc(-c2c(C)n([O-])c3c([n+]2=O)CCCC3)cc1	i	-18	-12	0	4	-1	-8	-7
CCOC(=O)C(=NCC1CCCO1)NNc1ccccc1Cl (stereo unspecified)	i	.	-6	1	3	-3	10	6
COc1cccc(NC(=O)NNC(=O)CN2C(=O)COc3ccccc32)c1	i	-10	4	1	-5	3	5	7
O=C(CSc1nc2ccsc2c(=O)n1CC1CCC(C(=O)O)CC1)NCCc1ccc(Cl)cc1 (stereo unspecified)	i	10	36	2	2	16	-2	-1
O=C1CC[C@H](O)CCN1[C@H](CSc1ccccc1)Cc1ccccc1	i	3	-7	3	4	-5	0	-13
Cc1cc(C)c(N2C(=O)CCCC2=O)c(Cl)c1	.	-14	-11	-2	2	6	-10	7
CCN1CCN(C(=S)NC(=O)c2cccs2)CC1	i	-19	2	2	4	3	.	-14
O=C(CCC(=O)Nc1ccc(Oc2ccccc2)cc1)NCCO	i	4	2	-2	-1	1	-9	.
COC(=O)N1C(=O)[C@@](c2ccccc2)(C(C)C)N1C(=O)OC	i	2	11	-2	3	-7	16	.
Cc1nnsc1C(=O)Nc1ccc(S(=O)(=O)N2CCC(C)CC2)cc1	i	-11	4	8	-20	3	5	-43
O=C(CCNC(=O)c1ccco1)Nc1ccc(F)c(Cl)c1	i	-5	2	1	2	-2	-15	-5
C=CCN(C(=O)c1csnn1)C(C(=O)NCc1ccc(F)cc1)c1ccc(F)cc1 (stereo unspecified)	i	0	8	-4	1	-7	-11	15
Cc1ccc(S(=O)(=O)N2CCN(C(=O)COC(=O)c3ccc(C(C)(C)C)cc3)CC2)c(C)c1	i	-44	-2	1	3	-5	-4	28
COc1ccc(NC(=O)COC(=O)/C=C/c2ccc(OC)c(S(=O)(=O)N3CCOCC3)c2)cc1	i	-6	3	2	7	0	22	-61
Cc1cc2nc(-c3ccc[nH]c3=O)n(Cc3ccccc3F)c2cc1C	i	0	-1	-2	0	-11	-6	-19
Cc1cc(C)n(-c2nc3ccccc3c(=O)n2OCc2ccc(Cl)cc2)n1	i	3	-8	0	1	-6	-10	-8
CCn1nnnc1SCC(=O)Nc1cc(C)on1	i	-16	-7	-5	1	-2	3	-6
CCn1ncc([C@@H]2C[C@H]3CN(Cc4ccccc4C)C(=O)[C@]34CCCN24)c1C	i	.	14	-9	3	41	4	1
CCCc1cc(=O)oc2cc(C)cc(OCC(=O)NCCCN3CCCC3=O)c12	i	-14	-2	0	0	-11	-31	-33
COc1ccc(-c2cnc3c(NC=O)cc(-c4ccc(S(C)(=O)=O)cc4)cn23)cc1OC	.	-2	.	-4	5	.	.	1
CCOc1ccc(NC(C(=O)Nc2cccc(C(C)=O)c2)c2ccccc2)cc1 (stereo unspecified)	i	.	-1	9	0	3	2	0
CC1Cc2cc(S(=O)(=O)N3CCN(c4ccccc4)CC3)ccc2N1C(=O)C1CC1 (stereo unspecified)	i	-28	.	-11	-14	.	-8	9
c1ccc(CCCc2nc(-c3ccccn3)no2)cc1	i	-28	5	-1	-3	-2	3	.
CCc1ccc(Oc2ncnc(N)c2[N+](=O)[O-])cc1	i	.	-4	-5	-4	-1	7	0
CC1CCCN(C(=O)CN(c2ccccc2)S(=O)(=O)c2ccc(F)cc2)C1 (stereo unspecified)	.	-3	.	-4	-2	.	.	11
Clc1ccc2c(NCc3ccccn3)ccnc2c1	i	-14	1	7	-5	0	1	23
COc1cc(C2C3=C(CC(c4ccco4)CC3=O)Nc3ccccc3N2C(C)=O)cc(OC)c1OC (stereo unspecified)	i	-4	24	-5	2	2	-15	.
CN1C(=O)C2(c3ccccc31)N(C)CC(c1ccccc1)C21SC(=S)N(Cc2ccco2)C1=O (stereo unspecified)	i	-10	10	-26	-24	6	30	80*

The results go on.
SMILES	Rce1 inh	UUG fidelity	PABP FP inh	MT1-MMP act inh	MT1-MMP act inh RFP	eIF4H inh	CSC inhib	HIV Env fusion	others
COc1cc2nc(NC(=O)c3ccccc3)[nH]c(=O)c2cc1OC	i	-4	0	17	3	4	0	-38
Cc1cccc(C(=O)NN(C)c2nc(-c3ccccc3)nnc2C(F)(F)F)c1	i	-16	-12	8	0	-10	27	-16
Cc1cc(C)c2c(-n3cccc3)c(C(=O)NNS(=O)(=O)c3ccc(Cl)cc3)sc2n1	i	.	8	4	-7	0	-8	-150
O=C(COC(=O)c1cc(-c2cccs2)nn1-c1ccccc1)Nc1cc([N+](=O)[O-])ccc1Cl	i	-16	-6	-2	2	1	7	-1
O=C1[C@@H]2CSCN2C(=O)CN1Cc1ccc(F)cc1	i	1	-6	-1	2	-7	-2	4
COc1ccc(NC(=O)CSc2nc3c(c(=O)n(C)c(=O)n3C)n2C)c(OC)c1	i	.	12	1	-1	-4	-8	-2
O=c1cc(O)nc(SCc2ccccc2)n1-c1ccccc1	i	-5	-1&-4	4&0	2&0	32&22	-20&-3	-23&-43
CC(C)N(CCNS(=O)(=O)c1ccc(Cl)cc1)C(C)C	i	-8	7	4	5	-1	-4	-28
CCOc1ccc(CCNC(=O)COC(=O)CCc2cc(OC)c(OC)c(OC)c2)cc1OCC	i	-8	.	-3	0	.	-4	-5
CCN(CC(=O)NCc1cccs1)C(=O)c1cccc(S(=O)(=O)Nc2ccc(OC)cc2)c1	i	.	.	6	0	.	-9	.
O=C(NCc1ccccc1)C(=O)Nc1nccs1	i	-9	0	-1	1	-15	-3	-3
Cc1cccc(Nc2nc(N)nc(CN3CCN(c4ccc(F)cc4)CC3)n2)c1	i	-8	4	3	-4	4	1	-26
CN1CCN(c2ccc(NC(=O)CSc3nnnn3-c3ccccc3Cl)cc2)CC1	i	-5	-8	1	4	-1	50	15
COc1ccc(OCCSc2nnc(C)n2-c2ccccc2)cc1	i	-15	-9	4	4	-1	4	-40
COc1ccccc1NC(=O)c1ccc2nc(C)sc2c1	i	2	0	0	-1	2	-1	-4
CSCCC(NC(=O)c1cccc(S(=O)(=O)N2CCOCC2)c1)c1nc2ccccc2[nH]1 (stereo unspecified)	.	-23	.	2	-1	.	-4	.
N=c1oc2ccc(Br)cc2cc1C(=O)NC1CCCCCC1	i	-5	11	-6	-1	-1	-13	-11
Cc1cccc(C(C)C)c1NC(=O)c1ccc(COc2ccc3c(C)cc(=O)oc3c2)cc1	i	.	1	-10	-13	1	29	-12
